Screens (PubChem)
Rango-impB inh: prevents formation of the Rango-importin beta complex. Potency, µM (highest dose often 92.2 µM), without a hit: top-dose inhibition of complex formation. 0.031% of 340,000 active. Q14974. Rango CFP/YFP FRET sensor + importin beta, 45 min; active = rising FRET ratio curve, often small or poorly fitted; inconclusive = mostly compound fluorescence or quenching in the first reads; inactive = flat curves in all reads;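 further: potency means the concentration at half of the fitted maximal effect; 0% = DMSO wells and 100% = buffer wells lacking importin beta; nearly all actives have a fitted effect of over 15% in size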
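FRET biosensor (snurportin 1 IBB flanked by EYFP and cerulean), 50 nM, with compound 5 min, then 0.125 microM importin beta in PBS, 1 mM DTT, 0.02% Tween-20, 0.1% BSA. CFP/YFP ratio read after 45 min at room temperature; pre-read flags interference.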
Rango release inh: prevents RanGTP from dissociating the Rango-importin beta complex; 0.071% of 340,000 active; Potency, µM (highest dose often 46.1 µM), inactives show at the highest dose activity change, negative = inhibition; AID 540253; Biochemical FRET Rango-importin beta, RanGTP-induced dissociation; O95149+P62826; active means falling FRET ratio curve, often poorly fitted, with flat reads before Ran was added; inconclusive means other falling curves, or compound fluorescence or quenching; inactive means flat or rising ratio curve;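 further: potency means the concentration at half of the fitted maximal effect; % of control where 0% means no effect; nearly all actives have a fitted effect of over 45% in size; -100% = wells without RanGTP and RCC1; the record marks most hits as doubtful in a second field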
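Rango/importin beta premix (0.1/0.25 uM final), PBS + 1 mM DTT + 0.02% Tween-20 + 0.1% BSA; cpd 5 min RT; FRET pre-read; + RanGTP-RCC1 (0.6 uM Ran, 2 mM GTP, 0.2 uM RCC1); 45 min RT; FRET post-read, ex 430, em 486/530 nm.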
GLA inh pH 4.5: alpha-galactosidase A (human) inhibition, pH 4.5; P06280; purified enzyme, 4-MU-alpha-Gal fluorescence, pH 4.5; activity change, negative = inhibition, % at 105 µM; 230,000 tested, under 10 active; inconclusive = small, poorly fitted or top-dose-only inhibition, or a rising curve; inactive = flat fitted curve, though single readings scatter; no compound was filed as active;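 further: 0% = full activity with enzyme and -100% = basal without enzyme; dose as in the result columns while the protocol names 77 µM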
Target sequence (P06280 whole entry, looked up): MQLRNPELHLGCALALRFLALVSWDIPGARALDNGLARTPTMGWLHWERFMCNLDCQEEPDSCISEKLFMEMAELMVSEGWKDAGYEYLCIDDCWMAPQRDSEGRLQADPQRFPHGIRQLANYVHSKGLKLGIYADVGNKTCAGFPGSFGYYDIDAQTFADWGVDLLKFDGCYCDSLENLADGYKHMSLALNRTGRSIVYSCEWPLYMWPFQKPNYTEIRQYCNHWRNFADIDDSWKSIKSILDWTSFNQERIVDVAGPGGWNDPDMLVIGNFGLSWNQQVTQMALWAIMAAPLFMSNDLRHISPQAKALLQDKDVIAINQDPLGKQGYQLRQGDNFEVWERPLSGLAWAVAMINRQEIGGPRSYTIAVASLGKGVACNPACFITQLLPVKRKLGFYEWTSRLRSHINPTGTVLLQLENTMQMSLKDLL
miR-21 FLuc: miR-21 reporter, rising signal. HeLa miR-21 FLuc reporter, luciferase, 48 h. Potency, µM (doses to about 38.3 µM), inactives show at the top dose reporter change, positive = more light. 340,000 tested, under 10 active. AID 2288; active = well fitted rising curve with a large enough effect; inconclusive = small, poorly fitted or top-dose-only effect; inactive = no such curve, though single readings can be large or run the other way;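 further: % of control where 0% means no effect; miR-21 action dims this reporter so a rising signal means less miR-21 action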
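HeLa cells endogenously expressing miR-21, stably carrying CMV-driven firefly luciferase with a downstream miR-21 binding site, 2000 cells/well. Titrations up to approximately 40 uM, 48 hours; luciferase luminescence read.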
* marks the source's active call; other numbers are inactive results; ? = inconclusive; / = no result given; [ ] = remark or other dose. Not all compounds are listed; the hit share may differ from the screen's.

SMILES	Rango-impB inh	Rango release inh	GLA inh pH 4.5	miR-21 FLuc
CN(C)CC#CCCCCCCC#CCN(C)C	/	/	0	-1%
CCOC(=O)/C(C#N)=C1/C=C(C)c2ccccc2N1	?	?	-12	-22%
Cn1c(-c2ccccc2)cnc1SCC(=O)N1CCCCC1	1.8%	-2%	-4	18%
COc1ccc(Cl)cc1N(CC(=O)N1CCCC1)S(=O)(=O)c1ccc(C)cc1	-0.3%	-16%	/	-1%
CCCc1nc(SCC(=O)N2CCC(C)CC2)c2c(=O)n(C)c(=O)n(C)c2n1	-0.4%	-8%	-4	24%
CCCCN(C(=O)CSCC(=O)Nc1ccc(OC)cc1)c1c(N)n(CCC)c(=O)[nH]c1=O	0.3%	8%	/	/
O=C(CSc1nccn1Cc1ccccc1)Nc1nccs1	3.9%	0%	-10	-46%
O=C1CC(c2c(F)cccc2Cl)C(n2cncn2)C(O)=C1C1NCCc2ccccc21 (centres undefined)	-5.2%	11%	-11	-1%
COc1ccc(CCn2nnnc2C(C(C)C)N2CCC(C(N)=O)CC2)cc1OC (centres undefined)	1.1%	2%	-3	-9%
Nn1c(SCc2cccc(C(F)(F)F)c2)nnc1-c1ccco1	?	-33%	9	-4%
COc1cccc(C2N(c3cccc(Cl)c3)C(=O)C3CCCN32)c1OC (centres undefined)	-3.3%	-2%	5	-4%
COc1ccc2[nH]c(=O)c(C(c3nnnn3CC3CCCO3)N3CCCCC3)cc2c1 (centres undefined)	1.8%	8%	6	0%
CC(C)=CCN1CCN(Cc2cc(C(C)C)n[nH]2)CC1CCO (centres undefined)	-0.2%	20%	?	-4%
CC1(C)CC(N2CCOCC2)=CC(=[N+]2CCOCC2)C1	-0.5%	-3%	0	-1%
N#Cc1c(-c2ccccc2)nc(-c2ccccc2)[nH]c1=O	-1.4%	-7%	13	0%

Quoted from the listing.
COc1ccc(Cl)cc1N(CC(=O)N1CCCC1)S(=O)(=O)c1ccc(C)cc1 @ miR-21 FLuc: -1%
CCCCN(C(=O)CSCC(=O)Nc1ccc(OC)cc1)c1c(N)n(CCC)c(=O)[nH]c1=O @ Rango release inh: 8%

Later entries
SMILES	Rango-impB inh	Rango release inh	GLA inh pH 4.5	miR-21 FLuc
O=C(CSc1ccc(Br)cc1)Nc1cccc(S(=O)(=O)N2CCOCC2)c1	1.8%	-2%	/	/
Cc1ccc(CSCC(=O)N(C)CC(=O)Nc2ccc(Br)cc2C)cc1	-1.7%	0%	/	/
COc1ccccc1NC(=O)Nc1nc(C(C)(C)C)cs1	-1.9%	-4%	-3	-5%
CCC(=O)N(Cc1cc2cc(C)c(C)cc2[nH]c1=O)C1CCCCC1	-0.5%	0%	-3	-3%
COc1cc(OC)c(C(=O)O/N=C(\N)c2ccc(C)cc2)cc1OC	0.6%	12%	/	-21%
COc1ccc2oc(=O)c(C(=O)NCc3ccco3)cc2c1	0.6%	-14%	-1	-36%
COCCN(C(=O)COC(=O)CCC(=O)c1cccs1)c1c(N)n(Cc2ccccc2)c(=O)[nH]c1=O	-0.6%	0%	/	/
N#Cc1ccc(C2=CC(=O)C[C@H](c3ccc(Cl)cc3)C2)cc1	-4.1%	13%	/	/
O=C(c1ccc(S(=O)(=O)Nc2ccccc2F)cc1)N1CCC1	-0.4%	14%	/	/
COCCNS(=O)(=O)c1ccc(OCC(=O)N2CCc3ccccc3C2)c(Cl)c1	-0.7%	22%	/	0%
O=C(CCS(=O)(=O)c1ccccc1Cl)Nc1ccc(S(=O)(=O)Nc2ncccn2)cc1	-2.0%	-1%	-25	-1%
NCCc1nnc(SCc2ccccc2Cl)o1	0.0%	2%	6	2%
CCOc1ccccc1-n1nnnc1SCC(=O)NC(=O)NCc1ccco1	6.5%	1%	-1	4%
CCN1CCN(c2nc3c(c(=O)n(C)c(=O)n3C)n2Cc2cccc3ccccc23)CC1	0.7%	2%	3	-11%
CCN1C(=O)c2cccc3c(S(=O)(=O)NCCCN4CCOCC4)ccc1c23	?	?	-23	-1%

Four entries from above, reformatted:
> CCC(=O)N(Cc1cc2cc(C)c(C)cc2[nH]c1=O)C1CCCCC1
  Rango-impB inh = -0.5%
  Rango release inh = 0%
  GLA inh pH 4.5 = -3
  miR-21 FLuc = -3%
> COc1cc(OC)c(C(=O)O/N=C(\N)c2ccc(C)cc2)cc1OC
  Rango-impB inh = 0.6%
  Rango release inh = 12%
  GLA inh pH 4.5 = /
  miR-21 FLuc = -21%
> COc1ccc2oc(=O)c(C(=O)NCc3ccco3)cc2c1
  Rango-impB inh = 0.6%
  Rango release inh = -14%
  GLA inh pH 4.5 = -1
  miR-21 FLuc = -36%
> COCCN(C(=O)COC(=O)CCC(=O)c1cccs1)c1c(N)n(Cc2ccccc2)c(=O)[nH]c1=O
  Rango-impB inh = -0.6%
  Rango release inh = 0%
  GLA inh pH 4.5 = /
  miR-21 FLuc = /

Going on with the list:
SMILES	Rango-impB inh	Rango release inh	GLA inh pH 4.5	miR-21 FLuc
CCCS(=O)(=O)N1CCC(C(=O)NCCCOC)CC1	-0.3%	19%	-5	-5%
O=C(CN1C(=O)NC2(CCCCCCC2)C1=O)N1CCN(C(=O)c2ccco2)CC1	3.2%	20%	-2	12%
O=S(=O)(c1ccc(F)cc1)N1CC2CCCN2c2ccc(C(F)(F)F)cc21 (centres undefined)	-0.8%	3%	4	-9%
Cc1ccc(C(=O)NNC(=O)Cn2nnc3ccccc32)cc1	4.9%	3%	2	-18%
C=CCn1c(SC)nc2sc3c(c2c1=O)CCc1ccccc1-3	-1.7%	10%	-8	-17%
O=C(CN1C(=O)NC2(CCCCCC2)C1=O)Nc1cccc(F)c1	2.0%	-6%	/	/
CCOC(=O)C1=C(C)NC(=S)NC1c1ccc(C)s1 (centres undefined)	-1.4%	6%	0	0%
NC(=O)C1CCN(C(=O)/C=C/c2ccccc2[N+](=O)[O-])CC1	2.5%	25%	5	-1%
COc1ccc(NC(=O)C(OC(=O)c2cnccn2)c2ccccc2)cc1Cl (centres undefined)	1.1%	1%	/	-13%
O=c1[nH]c2cc(Cl)ccc2n(CCNc2ncc(C(F)(F)F)cc2Cl)c1=O	1.0%	-7%	-16	-2%
O=C(O)c1nn(-c2ccccc2-c2n[nH]c(=O)[nH]c2=O)c(=O)[nH]c1=O	/	/	5	-2%
O=C(CSCc1ccccc1)N1CCN(c2ccccc2)CC1	4.2%	0%	-12	-61%
Cc1cc(C)n(C(=O)C2CCCN2S(=O)(=O)c2ccc(Cl)cc2)n1 (centres undefined)	-2.3%	9%	-3	-2%
O=c1c([N+](=O)[O-])cn(Cc2ccccc2)c(=O)n1Cc1ccccc1	-0.9%	-1%	/	/
O=C1COc2ccc(C(=O)COC(=O)c3ccc(F)cc3Cl)cc2N1	-2.1%	1%	/	/
CCOC(=O)c1sc(C)nc1C1CCN(C(=O)OCC)CC1	0.3%	-11%	9	-4%
O=C(OCc1nnc(-c2ccccc2)o1)c1ccc2c(c1)C(=O)N(CCc1ccccc1)C2=O	2.2%	-6%	0	-2%
CC(C)(C)OC(=O)N1CCC[C@H]1c1nnc(SCC(=O)Nc2cccc(Cl)c2)o1	3.6%	4%	-7	-6%
Cc1csc(SCC(=O)Nc2nccs2)n1	4.2%	-9%	/	/
CC(NC(=O)c1ccccc1Br)c1nnc(SCC(=O)NC2=NCCS2)n1C (centres undefined)	3.1%	0%	/	0%
CC[n+]1c(C=C2C=C(C)OC(C)=C2)sc2ccccc21	?	?	-14	?
Cc1ccc(S(=O)(=O)Nc2ccc(S(=O)(=O)N3CCOCC3)cc2)cc1[N+](=O)[O-]	0.7%	2%	/	-5%
Cc1nnc(SCC2=C(C(=O)O)N3C(=O)C(NC(=O)Cn4nc(C(F)F)c(Cl)c4C)C3SC2)s1 (centres undefined)	-1.0%	11%	-5[21.1 µM]	3%
Cc1cc2nc(CCN(Cc3cccnc3)C(=S)Nc3ccc(F)cc3)[nH]c2cc1C	-1.4%	9%	-14	-11%
Cc1cc(OCC(=O)OCC(=O)NCCN2C(=O)CSC2=O)ccc1Cl	4.8%	7%	/	/
O=c1c2sccc2nc(SCc2cc(=O)n3cc(Cl)ccc3n2)n1Cc1ccccn1	0.9%	-16%	10[21.1 µM]	-10%
Cc1cccc(NC(=O)c2nc[nH]c2C(=O)N2CCN(C(=O)OC(C)(C)C)CC2)c1	-4.3%	16%	/	/
CC(=O)c1ccc(Sc2ccc(C(C)=O)cc2)cc1	0.4%	-7%	-1	-35%
Cc1nn(CC(=O)N2CCOCC2)c(C)c1[N+](=O)[O-]	-1.4%	10%	13	1%
CCc1[nH]nc2c1C(Cc1ccccc1)C(C#N)=C(N)O2 (centres undefined)	4.9%	2%	0	-3%

Only GLA inh pH 4.5, Rango-impB inh and Rango release inh (5 entries from above):
canonical_smiles,GLA inh pH 4.5,Rango-impB inh,Rango release inh
Cc1nn(CC(=O)N2CCOCC2)c(C)c1[N+](=O)[O-],13,-1.4%,10%
Cc1cc(OCC(=O)OCC(=O)NCCN2C(=O)CSC2=O)ccc1Cl,/,4.8%,7%
CCc1[nH]nc2c1C(Cc1ccccc1)C(C#N)=C(N)O2 (centres undefined),0,4.9%,2%
Cc1csc(SCC(=O)Nc2nccs2)n1,/,4.2%,-9%
Cc1cc2nc(CCN(Cc3cccnc3)C(=S)Nc3ccc(F)cc3)[nH]c2cc1C,-14,-1.4%,9%

(further entries)
SMILES	Rango-impB inh	Rango release inh	GLA inh pH 4.5	miR-21 FLuc
CCN1CCCC1CN(Cc1cc2ccc(C)cc2[nH]c1=O)C(=S)Nc1ccc(OC)cc1OC (centres undefined)	0.0%	3%	2	-1%
C/C(=N\OCC(=O)OCC(=O)NC(=O)c1ccccc1)c1ccc2c(c1)OCO2	?	4%	/	/
Clc1ccc(Cn2cc(/C=N/n3cnnc3)c3ccccc32)c(Cl)c1	-1.5%	1%	5	0%
COc1cc(C(=O)OCCc2c(C)nc3nc[nH]n3c2=O)cc(OC)c1OC	2.6%	3%	-19	-1%
COC(=O)c1cccc(-c2noc(-c3ccccc3F)n2)c1	-0.3%	-1%	/	/
Cc1ccc(NC(=O)CCN2CCN(CCO)CC2)cc1	-2.2%	2%	/	/
CC(=O)c1nnn(-c2ccc(F)cc2F)c1C	0.0%	-6%	6	1%
Cc1csc(=O)n1CCC(=O)OCC(=O)NNC(=O)c1ccc(Br)cc1	0.8%	-8%	/	/
Cc1c(NC(=O)CSc2nnc(-c3ccco3)n2-c2ccccc2)c(=O)n(-c2ccccc2)n1C	-0.4%	-25%	0	-1%
CCc1ccc(Cn2nnc(C(=O)Nc3ccc(OC)cc3OC)c2N)cc1	0.8%	0%	-3	-2%
O=C(NCC(=O)N(c1ccccc1)C(C(=O)NCC1CCCO1)c1ccccc1)c1cccs1 (centres undefined)	0.1%	1%	/	3%
CC(=O)NC(C)C12CC3CC(CC(C(=O)O)(C3)C1)C2 (centres undefined)	4.4%	-14%	-3	1%
COc1ccccc1N1CCN(c2nc3ccccc3nc2C(C#N)C(=O)OC(C)C)CC1 (centres undefined)	?	?	-5	-8%
CCCNC(=O)c1onc(CSc2ccc(F)c(F)c2)c1C(=O)NCCC	1.1%	4%	/	/
CCc1nn(-c2cc(Oc3ccccc3)nc(-c3ccccc3)n2)c(N)c1C#N	5.8%	-1%	7	0%
Cc1ccc(NC2CCCN(C(=O)CCCN3CCCCC3=O)C2)cc1C (centres undefined)	-3.4%	1%	/	-10%
Cc1c(CCO)c(=O)n(-c2ccccc2)n1S(=O)(=O)c1ccc([N+](=O)[O-])cc1	1.1%	-6%	6	8%
COc1cc(C(=O)OCC(=O)Nc2ccc(C)cc2)cc(OC)c1OC	6.4%	9%	/	0%
CC(=O)N1c2ccc(S(=O)(=O)N3CCC(C(=O)NCc4ccc(F)cc4)CC3)cc2CC1C (centres undefined)	0.8%	-1%	/	8%
Cc1ccc(C)c(N(C)C(=O)COc2cc(=O)n(C)c3ccccc23)c1	1.7%	12%	-3	-13%
O=C(CN(Cc1ccccc1C(F)(F)F)C(=O)CNC(=O)c1ccco1)NC1CCCC1	1.7%	-3%	-6	-6%
